# T cruzi inh – inhibitors of intracellular T. cruzi growth, primary screen, luminescence, NIH3T3 host cells. T. cruzi beta-gal in NIH3T3, 90 h. inhibition, % (concentration not given with the values). hit rate 1.4% among 300,000. AID 1885, 2009;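 active = mean inhibition across valid replicates above about 55%, limit read from the data; inconclusive = mean below that limit but half or more replicates reach it; inactive = mean below it, under half of replicates reach it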;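 also: signal also drops with host cell toxicity which is not excluded here; 0% = plate median of DMSO wells and 100% = zero luminescence signal; higher percent means less beta-gal luminescence so fewer parasites; stock transfer was 50 nL into about 50 µL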
# Ecoli rRNA inh – reduced GFP signal of wild-type E. coli, primary screen, bacterial rRNA inhibitor project, GFP/RFP fluorescence, OD600, single point | GFP signal change (wild-type ribosome), % (concentration not given with the values) | E. coli WT GFP vs humanized-ribosome RFP mutants, 24 h; stronger effect = lower value; DMSO median 0, no signal -100 | AID 720706, 2013 | hit rate 1.6% among 350,000;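 active = significant combined selectivity score with lowered wild-type GFP, culture density cut under 30%, mutant RFP and density less affected; inactive = any of these conditions unmet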; also: one replicate is shown; some compounds called inactive have numbers as strong as hits
# Vif A3G – inhibitors of Vif binding to APOBEC3G peptide, primary screen, biochemical, TR-FRET, GST-Vif 1-94, biotin-A3G peptide, dose response retest (AID 1117319) | Virion infectivity factor (Human immunodeficiency virus type 1 group M subtype B (isolate … | TR-FRET GST-Vif / biotin-A3G peptide binding; higher % means a stronger effect; test concentration not given here; strong numbers were not always called active | one-dose inhibition, %; IC50 in µM for titrated hits | hit rate 0.57% among 260,000;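 active = above the screen mean plus three standard deviations and confirmed in dose response; inconclusive = results disagree or hit not tested in dose response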;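 also: Vif residues 1-94 fused to GST binding biotinylated APOBEC3G peptide 110-148; 0% = full assay without inhibitor and 100% = GST in place of GST-Vif; retest series ran down from 100 µM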
# MLL AF4-AF9 inh – inhibitors of AF4 peptide binding to AF9, primary screen, biochemical, AlphaScreen, biotin-AF4 peptide, FLAG-AF9, single point | hit rate 0.47% among 350,000 | AID 651704, 2012 | inhibition, % at 10 µM | Protein AF-9 (Homo sapiens), P42568;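 active = every replicate reaching a set inhibition limit, whatever the replicate mean, cut at about 25% in these data; inconclusive = mean inhibition reaches that limit but some replicates miss it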;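 also: 0% = plate neutral control median and 100% = total signal loss; the record names both 10 and 1 µM as test concentration; the first replicate is given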
# Target sequence (P42568 whole entry, looked up): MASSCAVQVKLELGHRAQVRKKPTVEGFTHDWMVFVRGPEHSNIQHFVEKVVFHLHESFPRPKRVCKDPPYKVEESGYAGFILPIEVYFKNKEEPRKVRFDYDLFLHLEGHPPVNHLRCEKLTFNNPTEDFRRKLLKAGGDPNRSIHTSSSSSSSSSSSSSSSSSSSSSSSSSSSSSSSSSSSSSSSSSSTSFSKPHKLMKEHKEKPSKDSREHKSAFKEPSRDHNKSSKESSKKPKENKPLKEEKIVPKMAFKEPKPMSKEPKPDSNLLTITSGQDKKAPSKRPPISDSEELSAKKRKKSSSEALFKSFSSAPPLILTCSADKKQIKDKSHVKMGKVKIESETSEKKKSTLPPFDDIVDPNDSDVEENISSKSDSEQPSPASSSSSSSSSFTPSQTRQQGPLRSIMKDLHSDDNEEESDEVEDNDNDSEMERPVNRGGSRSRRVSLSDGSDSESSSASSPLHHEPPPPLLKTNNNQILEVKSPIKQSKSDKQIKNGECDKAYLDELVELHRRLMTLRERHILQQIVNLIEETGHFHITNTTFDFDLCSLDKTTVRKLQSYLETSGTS
# Bfl-1 A1 inh – caspase 3/7 activation in MEF A1-2A-BIM cells, primary screen, A1 inhibitor project, cell-based, luminescence, HTS; Caspase-Glo 3/7 luminescence, 3 h; percent of clofoctol response, vehicle zero; caspase activation, % (no concentration beside the values); hit rate 0.066% among 330,000; AID 2462, 2010;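 active = over half of replicate activation scores above 10%, or exactly half above 10 with the replicate mean above 10; inconclusive = replicate mean below 10 yet half the replicates above 10; inactive = over half of replicates below 10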;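 also: wells of about 30 µL received 50 nL stock; many hits fall short of the cut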
# Beta cell apopt – inhibitors of cytokine-induced beta cell apoptosis, primary screen, luminescence; INS-1E cytokine-induced death, ATP luminescence, 48 h; percent of positive-control rescue, neutral wells zero; protection from apoptosis, % (test concentration not listed); hit rate 0.8% among 300,000;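 active = all replicates at 75% or more, or half of them and the mean; inconclusive = half reach 75% but not the mean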;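 also: 0% = cytokine-treated negative control wells and 100% = positive control rescue; higher means more ATP so stronger rescue from cytokine killing; wells of about 40 µL received 100 nL stock; the first replicate is given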
# RanGTP-Imp inh – inhibitors of RanGTP-importin-beta interaction, primary screen, biochemical, FRET, CFP-Ran, YFP-importin-beta, homogeneous; Ran GTPase (GTP-bound) - importin-beta complex; cell-free CFP-Ran/YFP-importin-beta FRET ratio; inhibition, % (concentration not given with the values); hit rate 1.1% among 300,000; AID 2216, 2009;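 active = most replicates above 15%; inconclusive = exactly half above 15%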;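 also: 0% = DMSO wells and 100% = Ran loaded with GDP instead of GTP; wells of about 40 µL received 100 nL stock; the first replicate is given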
# Calb FLC – C. albicans growth inhibition with fluconazole, primary screen, CaCi-2 strain, Alamar Blue fluorescence | C. albicans CaCi-2 (fluconazole-resistant clinical isolate) + fluconazole, 48 h | growth inhibition, % (no concentration beside the values) | hit rate 0.57% among 300,000 | AID 1979, 2009;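 active = most replicates above 75%; inconclusive = exactly half above 75%; inactive = most below 75%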;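 also: all wells also contain fluconazole at 8 µg/ml as a sub-toxic cotreatment; 0% = median of DMSO wells and 100% = median of geldanamycin control wells; wells of about 8 µL received 7.5 nL stock; the first replicate is given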
# Ecoli rRNA inh OD600 – second read-out of Ecoli rRNA inh, no call of its own (marks repeat the call); OD600 change, %; measured here: OD600 growth;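 optical density of the mix in the first replicate; 0 = DMSO median and -100 = no signal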
# Ecoli rRNA inh RFP – second read-out of Ecoli rRNA inh, no call of its own (marks repeat the call); RFP signal change, %; measured here: RFP humanized mutant strains;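 first replicate; 0 = DMSO median and -100 = no signal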
# The depositor's hits bear a star; ? = inconclusive; · = no result given. Only part of the results is shown; rates above refer to the full screens.
# Start of the data: the first eight compounds as a preview:
# Key to letters: A = T cruzi inh; B = Ecoli rRNA inh; C = Ecoli rRNA inh OD600; D = Ecoli rRNA inh RFP; E = Vif A3G; F = MLL AF4-AF9 inh; G = Bfl-1 A1 inh; H = Beta cell apopt; I = RanGTP-Imp inh; J = Calb FLC
1: CCn1c(=O)c(C(=O)NCCN2CCCCC2)c(O)c2ccccc21
  A: -0.8; B: ·; C: ·; D: ·; E: 12.7%; F: ·; G: 0.1; H: -4.6; I: -0.2; J: ?

2: Nc1ccc2oc(-c3ccc4nc[nH]c4c3)nc2c1
  A: -4.7; B: ·; C: ·; D: ·; E: -11.2%; F: ·; G: -3.1; H: -4.5; I: 3.4; J: -3.2

3: O=C(COC(=O)c1ccc(S(=O)(=O)NCc2ccco2)cc1)Nc1ccc(OC(F)F)cc1
  A: -2.1; B: ·; C: ·; D: ·; E: 3.2%; F: ·; G: 0.6; H: -4.3; I: -2.6; J: -3.1

4: COc1cccc(N2CCN(Cc3nc4scc(-c5ccccc5)c4c(=O)[nH]3)CC2)c1
  A: -3.5; B: ·; C: ·; D: ·; E: ·; F: -16.5; G: -0.1; H: -3.9; I: -10.2; J: -91.8

5: Cc1c(Cl)cccc1NC(=O)CSc1sc2c(O)cc(=O)[nH]c2c1C#N
  A: 6.4; B: 0.8; C: 8.8; D: 9.7; E: ·; F: 6.2; G: 1.3; H: -3.5; I: -1.0; J: 22.8

6: Cc1ccc(S(=O)(=O)N2CCOCC2)cc1NC(=O)COC(=O)c1ccc(Br)cc1
  A: ·; B: 4.8; C: 5.1; D: 0.9; E: -3.0%; F: 5.5; G: 1.1; H: 4.5; I: ·; J: ·

7: Cc1ccc(CCN2CC(C(=O)NC3CCCCC3)CC2=O)cc1 (stereo not given)
  A: -6.2; B: 9.2; C: 13.8; D: -4.1; E: ·; F: -1.5; G: 1.0; H: -3.8; I: -3.0; J: -8.2

8: O=C(COc1ccccc1Cl)NCc1ccncc1
  A: -3.1; B: ·; C: ·; D: ·; E: 17.1%; F: ·; G: -0.2; H: -2.6; I: 3.5; J: -5.2

# The whole of this part (from the top)
# Key to letters: A = T cruzi inh; B = Ecoli rRNA inh; C = Ecoli rRNA inh OD600; D = Ecoli rRNA inh RFP; E = Vif A3G; F = MLL AF4-AF9 inh; G = Bfl-1 A1 inh; H = Beta cell apopt; I = RanGTP-Imp inh; J = Calb FLC
1: CCn1c(=O)c(C(=O)NCCN2CCCCC2)c(O)c2ccccc21
  A: -0.8; B: ·; C: ·; D: ·; E: 12.7%; F: ·; G: 0.1; H: -4.6; I: -0.2; J: ?

2: Nc1ccc2oc(-c3ccc4nc[nH]c4c3)nc2c1
  A: -4.7; B: ·; C: ·; D: ·; E: -11.2%; F: ·; G: -3.1; H: -4.5; I: 3.4; J: -3.2

3: O=C(COC(=O)c1ccc(S(=O)(=O)NCc2ccco2)cc1)Nc1ccc(OC(F)F)cc1
  A: -2.1; B: ·; C: ·; D: ·; E: 3.2%; F: ·; G: 0.6; H: -4.3; I: -2.6; J: -3.1

4: COc1cccc(N2CCN(Cc3nc4scc(-c5ccccc5)c4c(=O)[nH]3)CC2)c1
  A: -3.5; B: ·; C: ·; D: ·; E: ·; F: -16.5; G: -0.1; H: -3.9; I: -10.2; J: -91.8

5: Cc1c(Cl)cccc1NC(=O)CSc1sc2c(O)cc(=O)[nH]c2c1C#N
  A: 6.4; B: 0.8; C: 8.8; D: 9.7; E: ·; F: 6.2; G: 1.3; H: -3.5; I: -1.0; J: 22.8

6: Cc1ccc(S(=O)(=O)N2CCOCC2)cc1NC(=O)COC(=O)c1ccc(Br)cc1
  A: ·; B: 4.8; C: 5.1; D: 0.9; E: -3.0%; F: 5.5; G: 1.1; H: 4.5; I: ·; J: ·

7: Cc1ccc(CCN2CC(C(=O)NC3CCCCC3)CC2=O)cc1 (stereo not given)
  A: -6.2; B: 9.2; C: 13.8; D: -4.1; E: ·; F: -1.5; G: 1.0; H: -3.8; I: -3.0; J: -8.2

8: O=C(COc1ccccc1Cl)NCc1ccncc1
  A: -3.1; B: ·; C: ·; D: ·; E: 17.1%; F: ·; G: -0.2; H: -2.6; I: 3.5; J: -5.2

9: O=C(Nc1ccc(F)c(F)c1)c1cnc(-c2ccccc2)nc1-c1ccccc1
  A: 14.5; B: ·; C: ·; D: ·; E: 14.9%; F: ·; G: 0.8; H: 36.4; I: -2.2; J: 7.3

10: CCOc1ccc(-n2ccn(CC(=O)NCCc3ccccc3)c(=O)c2=O)cc1
  A: 0.8; B: 8.1; C: 7.6; D: -1.5; E: 6.6%; F: 0.7; G: ·; H: ·; I: -6.1; J: -8.4

11: CN(Cc1ccccc1)CC1CCCN(CCc2ccccc2F)C1 (stereo not given)
  A: 33.1; B: 6.1; C: 8.9; D: 0.1; E: ·; F: 1.1; G: 0.4; H: 0.6; I: 1.2; J: 2.5

12: Cc1ccc(-c2nnc(SCC(=O)OC(C)C)n2N)cc1
  A: -15.4; B: ·; C: ·; D: ·; E: -2.1%; F: ·; G: -0.3; H: 2.8; I: ?; J: 1.8

13: O=C(COc1ccccc1)NNC(=O)COc1ccc([N+](=O)[O-])cc1
  A: -5.1; B: 2.1; C: 5.7; D: 0.0; E: 10.2%; F: 1.5; G: 0.3; H: -3.7; I: 4.5; J: 4.1

14: CC(=O)N/C(=C\c1ccccc1)C(=O)OCC(=O)c1ccc(F)cc1
  A: -9.5; B: 10.0; C: 12.7; D: 4.2; E: -13.6%; F: -2.2; G: 0.4; H: -2.5; I: 0.6; J: -13.0

15: O=C(/C=C1\NC2(CCCC2)Cc2ccccc21)N1CCOCC1
  A: -8.9; B: ·; C: ·; D: ·; E: -5.5%; F: ·; G: -1.9; H: -19.3; I: 9.4; J: ?

16: Nc1c(S(=O)(=O)c2ccccc2)c2nc3ccccc3nc2n1C1CC1
  A: 11.9; B: 7.0; C: -2.7; D: -2.4; E: ·; F: -1.6; G: 0.0; H: -11.3; I: 3.4; J: -6.9

17: COc1cc(Cl)c(C)cc1NC(=O)CSc1nnc(-c2ccco2)n1CC(C)C
  A: 32.9; B: -33.5; C: -64.2; D: 19.9; E: 1.5%; F: ·; G: 0.5; H: -9.6; I: 1.1; J: 17.3

18: CCOc1ccc(/C=C/C(=O)c2ccccc2)cc1
  A: -6.4; B: -10.2; C: -8.1; D: 3.9; E: ·; F: 4.6; G: -4.8; H: -0.7; I: 2.5; J: -0.4

19: O=C(COc1cccc2cccnc12)Nc1ccccc1
  A: -1.1; B: -2.4; C: 16.8; D: 6.0; E: -6.9%; F: -2.6; G: -0.8; H: 4.0; I: 1.6; J: -1.3

20: Cc1ccc(Sc2ncccc2C(=O)N(C)Cc2cccs2)c(C)c1
  A: 3.9; B: -3.7; C: -11.8; D: 6.7; E: ·; F: -4.8; G: 1.0; H: -0.8; I: -2.4; J: 0.6

21: O=c1nc(Nc2ccccc2)sc2ccc([N+](=O)[O-])cc12
  A: 2.6; B: ·; C: ·; D: ·; E: ·; F: ·; G: -1.0; H: -6.0; I: -2.0; J: -5.5

22: O=C(COC(=O)c1ccc2c(c1)S(=O)(=O)N=C1CCCCCN12)NCc1cccs1
  A: -8.8; B: 3.0; C: -0.8; D: -5.9; E: ·; F: -25.7; G: -0.1; H: 0.5; I: -0.7; J: 0.0

23: O=C(CNC(=O)C1CCCCC1)Nc1cc(Cl)ccc1Cl
  A: -7.8; B: 6.6; C: 3.6; D: -6.7; E: 4.4%; F: 2.4; G: 0.8; H: 3.7; I: 2.6; J: -18.6

24: Cc1ccc(C(=O)N2CCC(C(=O)NC3CCCCCC3)CC2)cc1
  A: -6.7; B: -2.1; C: 3.9; D: 0.5; E: ·; F: 0.5; G: 0.4; H: 3.1; I: -2.0; J: -3.2

25: Cc1ccccc1Nc1nc(N)nc(CN2CCN(Cc3ccc4c(c3)OCO4)CC2)n1
  A: -6.4; B: 20.7; C: 6.0; D: 1.8; E: -1.2%; F: 2.0; G: -0.2; H: 2.8; I: 6.2; J: -3.6

26: Cc1csc(CNc2ncnc3ccc(-c4ccc5c(c4)OCO5)cc23)c1
  A: ·; B: -17.1; C: -13.2; D: -1.4; E: ·; F: 8.4; G: -0.4; H: 22.8; I: ·; J: ·

27: CN(C1=C(NC(=O)c2ccc(Cl)cc2)C(=O)c2ccccc2C1=O)c1ccccc1
  A: -4.7; B: ·; C: ·; D: ·; E: 52.4µM*; F: ·; G: 0.0; H: 93.0*; I: 2.3; J: 3.5

28: CCN(c1cccc(C)c1)S(=O)(=O)c1cccc2nsnc12
  A: 1.2; B: ·; C: ·; D: ·; E: 5.6%; F: ·; G: 1.0; H: -4.8; I: -0.9; J: 55.5
